Screening data deposited in PubChem by PCMD.
Calb biofilm kill: mixture kills Candida albicans biofilm cells; C. albicans biofilm persisters + clotrimazole, fluorescence viability; primary screen in compound mixtures of four per well; inhibition, % at 7.6 µM; 120,000 tested, 0.02% active;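 active = inhibition above 30.3% in the primary screen of four-compound pools, then above 30% when the compound was retested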;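 note: compounds exposed to preformed 24 h biofilms for 48 h; the number belongs to the whole pool; some results filed as inactive read as strong as hits; inactives centre near 12; 0% = biofilm with clotrimazole alone and 100% = kill control; retested singly at about 60 µM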
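Probe or stimulus – Clotrimazole 50 µg/mL co-treatment · System – C. albicans biofilms · Schedule – 24 h biofilm formation, then 48 h compound exposure, 37 °C · Evaluation – percent inhibition of biofilm viability · Technique – 2-h Alamar Blue fluorescence, 535/590 nm excitation/emission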
Active calls of the source: *. An excerpt. The share of hits here may be higher or lower than overall.

canonical_smiles	Calb biofilm kill
CCC(=O)Nc1cccc(C2=NOC3(C2)C[C@@H](C(N)=O)N(C(=O)C(c2ccccc2)c2ccccc2)C3)c1 (stereo partly specified)	9
CCOc1ccc(S(=O)(=O)N(C)c2ccc(OCC(=O)Nc3nc(-c4cc(OC)ccc4OC)cs3)cc2)cc1	24
O=C(CN1CCOCC1)N/N=C/c1ccccc1	-4
C=CCc1ccccc1OCC(O)CN1CCN(Cc2ccc3c(c2)OCO3)CC1 (stereo unspecified)	13
CCCCc1ccc(NC(=S)NCc2ccccc2OC)cc1	0
Cc1c(NC(=S)N2CCN(c3cccc(Cl)c3)CC2)c(=O)n(-c2ccccc2)n1C	16
COc1ccc(S(=O)(=O)Nc2cccc(-c3ccc4nncn4n3)c2)cc1F	9
Cc1cc(C)c(CN2CCC(CO)(CCOc3ccccc3)CC2)cc1C	12
O=C(COC(=O)c1sc2cc(Cl)ccc2c1Cl)Nc1ncc(Cl)cc1Cl	14
CN(CC(=O)Nc1ccc(S(=O)(=O)N2CCCC2)cc1)Cc1ccc(Cl)cc1Cl	4
CSc1nc(N2CCN(c3ccccc3Cl)CC2)c2ccccc2n1	15
O=S(=O)(c1ccc(-c2ccccc2)cc1)N1CCCC1	1
COc1cccc(-c2c3c([nH]c(=O)c2C#N)CCc2cc(OC)ccc2-3)c1	1
CCOC(=O)C(=Cc1cc(=O)c(OC)co1)C(=O)OCC	9
COc1cccc(Nc2nc(N)c([N+](=O)[O-])c(NCc3ccccc3)n2)c1	32
O=C(O)c1ccccc1C(=O)NCC(O)c1ccccc1 (stereo unspecified)	21
COc1ccc(NC2=C(NCCO)C(=O)c3ccccc3C2=O)cc1	9
Cc1cccc(NS(=O)(=O)c2ccc(C)c(C(N)=O)c2)c1	11
Cc1[nH]n(-c2ccc([N+](=O)[O-])cc2)c(=O)c1C=NCCN1CCN(C(=O)C(C)C)CC1	16
O=C(NCc1ccccc1Cl)C(=O)NCC(c1ccco1)N1CCOCC1 (stereo unspecified)	16
CCN(CC)C(=O)CSc1nnc(COc2ccc(OC)cc2)n1N	23
CCCC(=O)N(C1CC(C)C(C#N)(C#N)C1(C#N)C#N)N(C)C (stereo unspecified)	20
O=C1COc2ccc(C(=O)COC(=O)c3cccnc3Cl)cc2N1	4
COc1ccc(OCC(O)CN2CCCCCC2)cc1 (stereo unspecified)	6
CCOC(=O)C(=O)N=Nc1c(O)[nH]c2ccccc12	14
CCOc1c(N2CC(C)OC(C)C2)c(=O)c1=O (stereo unspecified)	38
COc1cc(/C=C/C(=O)c2ccc(NS(=O)(=O)c3ccc(C)cc3)cc2)cc(OC)c1O	14
CCCC(=O)Nc1ccc(N2CCN(S(C)(=O)=O)CC2)cc1	7
CCN(CC)CCC(C)OC(=O)c1ccc(O)cc1O (stereo unspecified)	13
O=C(O)c1ccc(Cl)c(NC(=S)NC(=O)c2ccccc2[N+](=O)[O-])c1	14

Part of the list above, as labelled records.
SMILES: COc1cccc(Nc2nc(N)c([N+](=O)[O-])c(NCc3ccccc3)n2)c1
  Calb biofilm kill = 32
SMILES: O=C(O)c1ccccc1C(=O)NCC(O)c1ccccc1 (stereo unspecified)
  Calb biofilm kill = 21
SMILES: COc1ccc(NC2=C(NCCO)C(=O)c3ccccc3C2=O)cc1
  Calb biofilm kill = 9
SMILES: Cc1cccc(NS(=O)(=O)c2ccc(C)c(C(N)=O)c2)c1
  Calb biofilm kill = 11

Other compounds
canonical_smiles	Calb biofilm kill
COc1ccc(CCN2C(=O)C3C(C2=O)C2C=CC3C23CC3)cc1OC (stereo unspecified)	16
CCn1cc(CN(C)S(=O)(=O)c2ccc3ccccc3c2)c(C)n1	11
CCOC(=O)NNC1CC(=O)N(c2ccccc2)C1=O (stereo unspecified)	17
CCN(CC)c1ccc(/C=N/NC(=O)c2ccc([N+](=O)[O-])cc2)cc1	0
C[C@@H]1CCC[C@@]2(O[C@H](CCO)C[C@@H](O)[C@@H]2O)O1	13
Cc1ccccc1OCC(=O)N/N=C/c1ccccn1	2
Cc1ccccc1NC(=O)OCc1cccnc1Oc1ccc(Cl)cc1	6
CCC(C)Nc1nc(OC(C(F)(F)F)C(F)(F)F)nc(OC(C(F)(F)F)C(F)(F)F)n1 (stereo unspecified)	7
CCOc1ccc(-c2ccc(SC)nn2)cc1	12
COc1ccc(/C=N/c2c(-c3ccc(OC)cc3)nc3n2CCS3)cc1	11
Cc1cccnc1NS(=O)(=O)c1cccc([N+](=O)[O-])c1	9
CN1CCN(C(=O)CCN2C(=O)c3ccccc3C2=O)CC1	24
COc1cc(NC(=O)C(=O)Nc2ccc3nc4n(c(=O)c3c2)CCCCC4)cc(OC)c1OC	8
S=C(NCC1CCCO1)Nc1ccccc1 (stereo unspecified)	-6
CC(Oc1ccc(C(=O)c2ccccc2)cc1)C(=O)Nc1ccc(S(N)(=O)=O)cc1 (stereo unspecified)	7
Cc1ccc(-c2nnc(SCC(=O)N/N=C/c3ccc(C)s3)n2-c2ccccc2)cc1	16
CC(=O)Oc1ccc2oc(-c3ccccc3)c(C(N)=O)c2c1	22
O=S(=O)(NCc1ccco1)c1ccc(S(=O)(=O)N2CCCCC2)cc1	16
CCn1c(CCNC(=O)c2cccs2)nnc1SCC(=O)Nc1nc(-c2ccccc2)cs1	8
CCOC(=O)c1c(C)nc(C)c2c(=O)oc3ccccc3c12	14
Nc1ccccc1SCC(=O)Nc1nc(-c2ccccc2)cs1	10
COc1ccc(-n2c(C)cc(/C=C(\C#N)C(=O)NCc3ccco3)c2C)cc1	19
COc1cccc(NC(=S)N2CCCN(Cc3ccc(F)cc3)C2)c1	26
COc1ccc(N2CCN(C(=O)c3ccc4ccccc4n3)CC2)cc1	-5
NC(=O)C1CCN(C(=S)NC2CC3C=CC2C3)CC1 (stereo unspecified)	11
COc1cc(C#N)c(N=C(SCC#N)N2CCOCC2)cc1OC	4
COc1ccc(-c2ccc(C#N)c(OC)n2)cc1	9
CC(C)Oc1ccc(C(=O)NCC(=O)OCC(=O)N(C)Cc2cccs2)cc1	16
CNC(=O)COC(=O)c1cc(-c2ccc(OC)cc2)nc2ccccc12	-5
CN(Cc1cnn(C)c1)C(=O)c1cc(COc2c(F)cccc2F)on1	12

Three entries drawn at random from the list so far, as already listed:
canonical_smiles	Calb biofilm kill
C[C@@H]1CCC[C@@]2(O[C@H](CCO)C[C@@H](O)[C@@H]2O)O1	13
COc1cc(NC(=O)C(=O)Nc2ccc3nc4n(c(=O)c3c2)CCCCC4)cc(OC)c1OC	8
Nc1ccccc1SCC(=O)Nc1nc(-c2ccccc2)cs1	10

Of the compounds above, these have a furan ring, fused or not.
canonical_smiles	Calb biofilm kill
O=C(NCc1ccccc1Cl)C(=O)NCC(c1ccco1)N1CCOCC1 (stereo unspecified)	16
CC(=O)Oc1ccc2oc(-c3ccccc3)c(C(N)=O)c2c1	22
O=S(=O)(NCc1ccco1)c1ccc(S(=O)(=O)N2CCCCC2)cc1	16
COc1ccc(-n2c(C)cc(/C=C(\C#N)C(=O)NCc3ccco3)c2C)cc1	19

Next part:
canonical_smiles	Calb biofilm kill
CN1/C(=C\C(=S)Nc2ccccc2)C(C)(C)c2ccccc21	10
COc1ccc(Cl)cc1NC(=S)NCCCN1CCCC1=O	-1
COCCNC(=O)C1CC(=O)N(c2ccc(OC)cc2)C1c1ccc(OC)cc1 (stereo unspecified)	9
CCCCNCc1cc(OCC)c(OCC)cc1Br	-6
Cc1cc(C)n(CC(=O)NN)n1	11
O=c1c2c(-c3cccs3)csc2ncn1-c1ccccc1	13
CSc1sc(C(=O)NC(=O)NCc2ccncc2)c(C)c1-c1ccon1	9
COc1cc(OC)c(S(=O)(=O)NCc2cccnc2)cc1NC(C)=O	9
CCNC(=S)NNC(=O)c1cc(-c2ccc(OC)cc2)nc2ccccc12	6
CCOC(=O)c1cc2c(ccn2C)n1CC(=O)Nc1ccc(F)cc1	21
CN1/C(=C\C=C2/C(=O)Oc3ccccc3C2=O)C(C)(C)c2ccccc21	14
C=CCN1C=C2C(=O)C(C)(OC(=O)C3CCCC3)C(=O)C(c3ccccc3)=C2C=C1CCCC(=O)OC (stereo unspecified)	18
CNC(=S)N/N=C/c1cn(CCOc2ccc(OC)cc2)c2ccccc12	10
COc1ccc2cc([C@H](C)C(=O)O)ccc2c1	14
COc1ccc(Nc2nc(Cl)nc(N3CCN(c4ccc(OC)cc4)CC3)n2)cc1	-1
CCN(C(=O)CSc1nnc(-c2cccs2)n1CC)C1CCS(=O)(=O)C1 (stereo unspecified)	20
COC(=O)c1ccc(N2C(=O)CC(SCC(=O)Nc3ccc(OC)cc3)C2=O)cc1 (stereo unspecified)	24
FC(F)(F)c1cc(-c2cccs2)nc2nc(N3CCOCC3)sc12	13
Cc1ccc(-n2c(Cc3cccc4ccccc34)n[nH]c2=S)c(C)c1	-7
CCCCCCCn1c2c(c(=N)c3ccccc31)CCC2	23
C/C(CC(=O)NC1CCCC1)=N\NC(=O)C1CCCCC1	12
CCCOc1ccc(N2CC(C(=O)NC3=NCCS3)CC2=O)cc1 (stereo unspecified)	17
CCn1nc(C)cc1C(=O)Sc1ccc(Cl)cc1Cl	31
Cc1cc(C)c2cc(C(=O)N(C)C3CCN(C)CC3)[nH]c2c1	15
CNC(=O)C(=O)NCCN1CCN(C(=O)c2ccc([N+](=O)[O-])cc2)CC1	7
CCOc1ccc(CNc2nc3ccccc3n2CCN2CCOCC2)cc1	5
CCn1c(=O)c([N+](=O)[O-])c(NCc2ccc3c(c2)OCO3)c2ccccc21	28
COc1ccc(-n2cc(C(=O)c3cc(Cl)ccc3O)cc(C#N)c2=O)cc1	5
CCCn1nnnc1NC(=O)COc1ccc(CC)cc1	12
C[N+](C)(C)CCOP(=O)(O)OP(=O)([O-])OC[C@H]1O[C@@H](n2ccc(N)nc2=O)[C@H](O)[C@@H]1O	13
CC(=O)c1c(C)nc(Nc2nc3ccccc3s2)nc1C	17
CCOc1ccccc1N1CCN(C(=S)NCc2ccco2)CC1	14
C/C(N)=C(/C#N)C(=O)COC(=O)CNS(=O)(=O)c1ccc2ccccc2c1	16
CCOC(=O)C1=C(C)NC(c2cccs2)C(=O)N1 (stereo unspecified)	13
CCCNC(=O)NC(=O)COC(=O)c1ccc(S(=O)(=O)N(C)c2ccccc2OC)cc1	8
COc1ccc(-c2nn(-c3ccccc3)cc2CNCCN2CCOC2=O)c(F)c1	4
O=C(NCCc1csc(-c2cccnc2)n1)c1ccccc1Br	12
O=C(N/N=C/c1cccn1-c1ccccc1)c1ccncc1	5
O=C(O)CCCn1cc(NC(=O)COc2ccccc2[N+](=O)[O-])cn1	16
CCOC(=O)c1c(C)[nH]c(C)c1C(=O)COC(=O)c1cccc(C)c1O	14
CCC(C(=O)NCCCc1ccccc1)c1ccccc1 (stereo unspecified)	17
COc1cc(/C=C/C(=O)O)cc(S(=O)(=O)Nc2cccc(S(=O)(=O)N3CCOCC3)c2)c1OC	17
NNC(=O)c1sc(-c2ccc(Cl)cc2)cc1N	11
CC(=O)Nc1ccc(NC(=S)NC(=O)c2ccc([N+](=O)[O-])c(C)c2)cc1	10
CCOC(=O)C1=C(C)N(C)C(=S)NC1c1ccc(Cl)cc1 (stereo unspecified)	7
CSc1cccc(NC(=S)N(CCCN2CCC(C)CC2)Cc2cccs2)c1	19
O=C(OCC(=O)N(Cc1ccccc1)C1CCS(=O)(=O)C1)c1cc2c(s1)CCCC2 (stereo unspecified)	19
CC(=O)/C(N=Nc1cc2c(c([N+](=O)[O-])c1C)C(C)(C)CC2(C)C)=C(\C)O	12
Cn1c(N)c(C(=O)COC(=O)c2ccc(Cl)c(S(=O)(=O)N3CCCC3)c2)c(=O)n(C)c1=O	21
O=C(CCN1CCOCC1)NNC(=S)NC(=O)c1ccc(Br)cc1	10
Cc1cccc(C(=O)NCC(=O)OCC(=O)c2cc(C)n(CC3CCCO3)c2C)c1 (stereo unspecified)	9
CC(C)(C)C(=O)NCCc1nc2ccccc2n1CC(=O)c1ccccc1	17
COc1ccc2c(c1)C=C(CN1CCN(C(C)C)C(CCO)C1)CO2 (stereo unspecified)	7
N/C(=N/O)c1ccccc1N1CCC(Cc2ccccc2)CC1	-9
CC(Sc1nnc2ccccn12)C(N)=O (stereo unspecified)	-3
O=C(COc1ccc(Br)cc1)NCCO	2
O=C(O)/C=C/c1cccnc1	7
Cc1cc(C)nc(SCC(=O)N/N=C\C(Br)=C\c2ccccc2)n1	18
CCOC(=O)C1=C(N)c2ccccc2CC1C1CCCC1 (stereo unspecified)	17
CCN(Cc1ccccc1)C(=O)COC(=O)c1cc(Cl)nc(Cl)c1	14

Other compounds follow.
canonical_smiles	Calb biofilm kill
CCCOc1ccc(-c2cn3ccccc3n2)cc1	24
CC(C)NC(=O)C1CCN(C2CCN(Cc3ccc4cccc(F)c4n3)CC2)CC1	-2
C#Cc1ccc([C@@H]2C=C(C(=O)O)O[C@H](OCCCCO)C2)cc1	21
NS(=O)(=O)c1ccc(NC(=S)NCc2ccccc2)cc1	16
Cc1cc(C)c(-c2csc(NC(=O)C3=NN(c4ccccc4)C(=O)CC3)n2)c(C)c1	20
Cc1ccccc1CN(c1ccc(C(=O)N/N=C/c2ccc(OCC(N)=O)cc2)cc1)S(C)(=O)=O	17
Cc1ncc(CN2CCN(C3CCCC3)C(CCO)C2)s1 (stereo unspecified)	7
